WNV NS2B-NS3 inh – inhibitors of West Nile virus NS2B-NS3 protease | z-score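 (tested at a level between 10 and 100 µM)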 | WNV NS2B-NS3 protease, fluorogenic substrate Ex360/Em465; hits give low values | 65,000 tested, 0.18% active | P06935;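 active = z-score at -3 or under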;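 note: score is relative to mean and spread of the compound wells of a plate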
Target sequence (P06935 1371-1501 limits assumed): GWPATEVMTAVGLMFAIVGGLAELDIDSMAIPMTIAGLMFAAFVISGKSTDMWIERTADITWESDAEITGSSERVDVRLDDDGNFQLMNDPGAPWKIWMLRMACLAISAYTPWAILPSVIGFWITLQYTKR
Target sequence (P06935 1502-1679 limits assumed): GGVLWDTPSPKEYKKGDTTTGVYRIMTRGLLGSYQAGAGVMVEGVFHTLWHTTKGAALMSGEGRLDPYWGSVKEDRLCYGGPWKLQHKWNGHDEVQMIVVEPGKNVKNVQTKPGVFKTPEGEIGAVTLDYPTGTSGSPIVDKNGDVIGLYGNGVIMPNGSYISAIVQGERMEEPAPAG
MT1-MMP reporter – MT1-MMP gene expression reporter suppression – cell-based, luciferase reporter, luminescence (AID 618); MT1-MMP promoter luciferase reporter cells, luminescence; calls from a first round at 10 µM; hits with a dose series show EC50 in µM; 87,000 tested, 0.62% active;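 active = over half of the reporter light lost at 10 µM or EC50 under 50 µM; inactive = the rest and hits that failed the dose series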;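 note: actives suppress MT1-MMP promoter-driven transcription so potencies describe inhibitors; HT1080 fibrosarcoma cells; overnight exposure; toxic or luciferase-blocking compounds were not removed from the actives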
Hsc70 – Hsc70 inhibitors, probe displacement, primary screen, biochemical, fluorescence polarization (AID 568); Hsc70 fluorescence polarization, probe displacement; higher % means a stronger effect; strong numbers were not always called active; displacement, % at 20 µM; hits with a dose series show IC50 in µM; 83,000 tested, under 10 active;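 active = displacement above 50% without optical interference and an IC50 on retest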;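 note: ATPase domain with a fluorescein-tagged ATP probe; 0% = vehicle and 100% = excess ADP; read after one hour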
* = called active by the depositor; i = inactive; . = no result given.

structure | MT1-MMP reporter | Hsc70 | WNV NS2B-NS3 inh
O=C(CCc1ccccc1)Nc1nc2n(n1)C(c1ccccc1)CC(=O)N2 (centres undefined) | i | 6.2% | 0.08
COc1ccc(C/C(N)=N/n2cnnc2)cc1Cl | i | 4.0% | -0.43
N#Cc1ccc(-n2nccc2-c2cnc3n(c2=O)CCS3)cc1 | i | -1.5% | .
CC1(C)CC(CCC(=O)Nc2ccc(S(N)(=O)=O)cc2)C(=O)O1 (centres undefined) | i | 1.0% | 0.35
NC(=O)c1ccc(-n2nnnc2Oc2ccccc2)cc1 | i | 1.1% | 0.1
COc1cc(CO)cc(Br)c1OCC(=O)N1CCCCC1 | i | -3.1% | -0.95
COC(=O)c1cccc(C(=O)Nc2ccc(C)cc2)n1 | i | -1.7% | -0.97
COc1ccccc1-c1cnnc(N/N=C/c2ccc(-c3cccc(Br)c3)o2)n1 | i | 4.2% | .
CC(=O)n1cc(/C=N/NC(=O)c2sc(C)nc2C)c2ccccc21 | i | 6.5% | .
COc1cccc(NC(=O)c2nc3ncccn3n2)c1 | i | 3.7% | 0.12
CC(C)C[C@H](NC(=O)OC(C)(C)C)c1nnc(SCc2ccccc2)o1 | i | -6.5% | .
O=c1ccc2cc(S(=O)(=O)N3CCOCC3)ccc2o1 | i | -1.1% | -0.77
Cc1ccccc1NC(=O)N1CCCC(c2nc(-c3ccc(F)cc3)no2)C1 (centres undefined) | i | 6.8% | -0.43
CCCc1nn(C)c2c1C(c1cccnc1)C(C#N)=C(N)O2 (centres undefined) | i | -2.0% | 0.12
O=C(O)c1ccc(S(=O)(=O)N2CCC(c3nc(-c4ccccc4Cl)no3)CC2)cc1 | i | 4.7% | 2
CCC(=O)Nc1cc2c(cc1C(=O)c1ccccc1)OCCO2 | i | 3.8% | -1.5

Full records, quoted from the list. Order of values: MT1-MMP reporter	Hsc70	WNV NS2B-NS3 inh
O=c1ccc2cc(S(=O)(=O)N3CCOCC3)ccc2o1 across the screens: i	-1.1%	-0.77
O=C(O)c1ccc(S(=O)(=O)N2CCC(c3nc(-c4ccccc4Cl)no3)CC2)cc1 across the screens: i	4.7%	2
CCC(=O)Nc1cc2c(cc1C(=O)c1ccccc1)OCCO2 across the screens: i	3.8%	-1.5
CC(=O)n1cc(/C=N/NC(=O)c2sc(C)nc2C)c2ccccc21 across the screens: i	6.5%	.
Cc1ccccc1NC(=O)N1CCCC(c2nc(-c3ccc(F)cc3)no2)C1 (centres undefined) across the screens: i	6.8%	-0.43

Other compounds follow:
structure | MT1-MMP reporter | Hsc70 | WNV NS2B-NS3 inh
CCC(c1nnnn1C(C)(C)C)N(CCOC)Cc1cc2cccc(C)c2n2nnnc12 (centres undefined) | i | -4.7% | -0.63
O=C(O)Cc1ccc(NC(=O)C2CCCCC2C(=O)O)cc1 (centres undefined) | i | -1.9% | 0.69
CCCOc1ccc(C(=O)C(c2ccccc2)N2CCOCC2)cc1 (centres undefined) | i | -6.7% | 0.04
Cc1sc2ncnc(N3CCCCC3)c2c1C | i | 7.0% | .
C=CCn1sc(=N)c(C#N)c1N | i | 1.8% | 0.11
CCn1nnc(NC(=O)c2cc(Cl)c(OC)c(Cl)c2)n1 | i | -5.2% | -0.65
Cc1sc2ncnc(Sc3nnnn3-c3ccccc3)c2c1C | i | 2.0% | -1.2
c1ccc2c3c(cc(N4CCOCC4)c2c1)OC1(N2CCOCC2)CCCCC1O3 (centres undefined) | i | 1.0% | 0.17

The last 4 compounds of the part above lead into the next.
structure | MT1-MMP reporter | Hsc70 | WNV NS2B-NS3 inh
C=CCn1sc(=N)c(C#N)c1N | i | 1.8% | 0.11
CCn1nnc(NC(=O)c2cc(Cl)c(OC)c(Cl)c2)n1 | i | -5.2% | -0.65
Cc1sc2ncnc(Sc3nnnn3-c3ccccc3)c2c1C | i | 2.0% | -1.2
c1ccc2c3c(cc(N4CCOCC4)c2c1)OC1(N2CCOCC2)CCCCC1O3 (centres undefined) | i | 1.0% | 0.17
O=C(CN1C(=O)CCC1=O)Nc1nc2c(F)cc(F)cc2s1 | i | 1.6% | -0.15
C=CCc1c(C)nc(C)nc1N/N=C/c1ccccc1 | i | 2.7% | .
Cc1ccccc1Cn1ccc(NC(=O)c2cnn3c2NC(c2ccccc2)CC3C(F)(F)F)n1 (centres undefined) | i | 2.2% | .
CCOC(=O)c1ccc(N2C(=O)CC(N3CCOCC3)C2=O)cc1 (centres undefined) | i | 6.6% | -1.2
COc1ccc(-c2nc3n(n2)C(c2ccncc2)C(C(N)=O)=C(C)N3)cc1 (centres undefined) | i | -1.9% | 0.41
CCOc1ccc(NC(=O)CC2NCCNC2=O)cc1 (centres undefined) | i | 5.0% | -0.47
O=C(CSc1ccccc1)N1CCc2ccccc21 | i | -2.1% | .
CC(=O)Nc1ccn(Cc2c(F)cccc2Cl)n1 | i | 4.0% | -1.1
C=CCc1cccc(CNc2nc3ccccc3n2CCN2CCOCC2)c1O | i | -4.3% | -0.74
Cc1c(C(=O)N2CCCC2)sc(NC(=O)c2ccccc2)c1C#N | i | 1.7% | .
COc1ccc2c(CC(=O)N(C)CC3COc4ccccc4O3)coc2c1 (centres undefined) | i | 1.8% | 0.56
O=C(O)c1cc(-c2ccncc2)nc2ccc(S(=O)(=O)N3CCOCC3)cc12 | i | -3.4% | 0.59
Cn1c(SCc2cccc(F)c2)nnc1-c1ccccn1 | i | -5.6% | -0.52
CC(C)OC(=O)CC(=O)CSc1nc2c(cc1C#N)CCC2 | i | 3.8% | -1
Cc1cc(=O)oc2cc(OCC(=O)NCc3ccncc3)ccc12 | i | 9.4% | .
O=C(O)CCCC(=O)Nc1ccc(C(=O)N2CCCCC2)c(Cl)c1 | i | 0.9% | 0.77
Cc1cccc(C(=O)c2ccccc2C(=O)O)c1O | i | 3.6% | -0.01
O=C(Cn1c(=O)oc2cc(S(=O)(=O)N3CCCCCC3)ccc21)NC1CCCCC1 | i | 6.2% | -0.72
O=C(NC1CCN(S(=O)(=O)c2ccccc2)CC1)C1CCCCC1 | i | 1.6% | .
CCc1nnc(NC(=O)CN2CCN(c3ccccc3OC)CC2)s1 | i | -3.6% | -1.4
Cc1n[nH]c(C)c1S(=O)(=O)N(CC(=O)NC1CCCC1)c1ccc(C(C)C)cc1 | i | -0.1% | 0.9
COc1ccc(-n2cnc3cc(NS(=O)(=O)c4ccc(C)cc4)ccc32)cc1 | i | -4.4% | .
COC(=O)c1ccccc1NC(=O)CSc1ccc(C)cc1 | i | 4.1% | .
Cc1nnc(NC(=O)CSc2nnnn2Cc2ccccc2)s1 | i | -3.1% | -1.4
CCOC(=O)C1=C(CN2CCc3ccccc32)NC(=O)NC1c1ccc(Cl)cc1 (centres undefined) | i | -0.3% | .
CN(CCCNC(=O)COc1cc(=O)n(C)c2ccccc12)Cc1ccccc1 | i | -0.9% | -0.13
O=C(Nc1cccc(F)c1)N1CC=C(n2c(=O)[nH]c3ccccc32)CC1 | i | 1.8% | 0.81
COc1ccc2nc(SCC(N)=O)cc(C)c2c1 | i | 2.2% | 0.29
CCCCC1CCC(C(=O)NC2CCS(=O)(=O)C2)CC1 (centres undefined) | i | 12% | -0.54
Cc1cc2c(=O)n(Cc3ccco3)c(SCC(=O)N3CCCc4ccccc43)nc2s1 | i | -1.9% | -0.22
O=C(c1ccccc1F)N1CCC(O)(c2cccnc2)CC1 | i | -5.7% | 0.05
CC(=O)c1coc2c1cc(O)c1ccccc12 | i | 1.5% | .
CCN(CCCNS(=O)(=O)c1ccc2c(c1)CCN2C(C)=O)c1cccc(C)c1 | i | 5.9% | -1.2
CCCC(=O)n1nc(-c2ccc(Cl)cc2)nc1SC | i | 1.1% | -0.71
COc1ccccc1NC(=O)C1=C(C)Nc2nnnn2C1c1ccncc1 (centres undefined) | i | 2.4% | 0.4
COC(=O)C(C)N(c1ccc(C)cc1)S(=O)(=O)c1c(C)[nH]c(=O)[nH]c1=O (centres undefined) | i | 1.6% | .
Cc1ccc(CNC(=O)c2cc3c(=O)n4ccccc4nc3n(CC3CCCO3)c2=N)cc1 (centres undefined) | i | -5.9% | 0.62
CCC(=O)/C=C1\Sc2ccc(OC)cc2N1CC | i | 2.0% | -0.79
COc1ccc(Cl)cc1Nc1nc(N2CCCC2)nc(N2CCCC2)n1 | i | 1.8% | 0.32
O=C1N(CCCN2C(=O)C3(OCCO3)c3ccccc32)c2ccccc2C12OCCO2 | i | -2.2% | -0.15
COc1ccc(N(CC(=O)NC2CCCCC2)C(=O)CNC(=O)c2ccco2)cc1OC | i | 3.4% | .
COc1ccc(C(c2nnnn2C(C)(C)C)N2CCN(c3nc4ccccc4s3)CC2)cc1OC (centres undefined) | i | -0.1% | -0.84
CCCOc1cccc(C2/C(=C(/O)c3ccccc3)C(=O)C(=O)N2CCN(C)C)c1 (centres undefined) | i | -7.8% | -0.6
C=CCSc1nnc(-c2c[nH]c3ccccc23)n1CCOC | i | 1.5% | -0.61
O=C(Nc1ccc(Cl)cc1)[C@@H]1[C@@H]2C(=O)N(c3ccc4ccccc4c3)C(=O)[C@@H]2[C@H]2C=CC=NN21 | i | 2.7% | .
Cc1cnc(C(=O)Nc2ccccc2-c2nnn(CC(=O)NC3CCCC3)n2)cn1 | i | -2.8% | -0.72
CCC(C)N1C(=O)c2ccccc2C1C(=O)NC1CCCCCC1 (centres undefined) | i | -4.9% | 0.38
CC(=O)Nc1nnc(S(N)(=O)=O)s1 | i | -3.8% | 0.92
COc1c(Br)cc2c(C)c(C(=O)N3CCOCC3)oc2c1Br | i | -5.8% | -1.2
CC(C)(C)OC(=O)NCCc1nnc(SCc2c(Cl)cccc2Cl)o1 | i | 5.1% | .
CCc1nnc(NC(=O)CSc2nnc(CCc3nc4ccccc4[nH]3)n2C)s1 | i | 1.6% | 0.36
COc1ccc(C)cc1NC(=O)CCC(=O)Nc1ccc2nc(N3CCN(C)CC3)cc(C)c2c1 | i | 1.5% | 1.8
Cc1ccc(C(=O)Nc2ccccc2C(N)=O)o1 | i | 0.9% | -0.13
COc1ccc(NC(=O)CSc2nnc(-c3ccccc3)n2Cc2ccco2)cc1OC | i | 4.6% | .
FC(F)(F)c1cccc(NCc2cn3cccnc3n2)c1 | i | -4.9% | 0.37
CCOC(=O)CSCC(=O)Nc1cc(C)ccc1C | i | 1.2% | -0.42

Additional records:
structure | MT1-MMP reporter | Hsc70 | WNV NS2B-NS3 inh
CC(NC(=O)c1cc2sccc2n1C)c1ccc2c(c1)OCCO2 (centres undefined) | i | -4.6% | 0.28
Cc1oc(-c2ccccc2F)nc1CS(=O)(=O)CC(=O)NCCCN(C)C1CCCCC1 | i | -6.6% | 1.7
COc1cccc(C2CC(c3ccc(C)cc3)n3nc(N)nc3N2)c1 (centres undefined) | i | 2.0% | -0.66
O=C1c2nc3ccccn3c2C(=O)N1Cc1ccccc1 | i | -1.5% | 0.26
CC(=O)C1=C(C)NC(=O)NC1c1cccc(O)c1 (centres undefined) | i | -2.0% | 0.03
CC1=Nc2ncnn2C(c2ccccc2)/C1=N\O (centres undefined) | i | -3.7% | -0.49
CCOC(=O)c1cc2c(ccn2C)n1CC(=O)N1CCN(c2cccc(C(F)(F)F)c2)CC1 | i | 1.7% | .
Cc1cccc(-n2ncc3c(N4CCN(c5nc(C)cc(C)n5)CC4)ncnc32)c1 | i | 1.5% | -0.05
Cn1c(NCc2ccco2)nc2c1c(=O)n(Cc1ccc(Cl)cc1)c(=O)n2C | i | -216% | -0.38
CCOC(=O)C1C(=O)NC(N2CCN(c3ccccc3)CC2)=NC1c1ccco1 (centres undefined) | i | 2.1% | -0.34
O=C(C1Cc2ccccc2CN1S(=O)(=O)c1cccs1)N1CCCCCC1 (centres undefined) | i | 3.5% | -0.69
CCOC(=O)c1ccc(NC(=O)CN2C(=O)CNC2=O)cc1 | i | 6.8% | -0.42
Cc1cc(C(=O)N2CCC(C(F)(F)F)n3nccc32)on1 (centres undefined) | i | 5.1% | 0.67
CSc1ccc(Cl)c(C(=O)OCC(=O)NC2CC2)c1 | i | -0.2% | .
C=CCc1c(C)nc(SC)nc1Nc1ccc(C(=O)O)cc1 | i | 3.7% | -0.96
CC1CCC/C(=C\Nc2ccc3c(c2)OCO3)C1=O (centres undefined) | i | -1.6% | -0.65
COc1cc(C(=O)OC2CCN(C)CC2)cc(OC)c1OC | i | -8.3% | -0.39
CCOc1ccccc1/C=c1\sc2nc(-c3ccco3)nn2c1=O | i | -3.6% | 0.98
Cc1cc(C)n(-c2ccc(C(=O)Nc3cc(C(F)(F)F)ccc3N3CCOCC3)cc2)n1 | i | 6.5% | .
O=C(c1ccc2c(=O)n(-c3ccccc3)c(=O)[nH]c2c1)N1CCN(c2ccc(F)cc2)CC1 | i | -3.9% | -0.53
COc1ccc(N(C(=O)c2ccco2)S(=O)(=O)c2cc(OC)ccc2OC)cc1 | i | 3.9% | 0.66

Source: PubChem BioAssay (several laboratories)

Not a hit list; any-hit rate near 0.87%.
